# eIF4H inh: inhibitors of RNA binding by human eIF4H; inhibition, % at 35 µM; actives 0.94% (n = 290,000); eIF4H fluorescence polarization binding assay;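 active = 50% or more with normal probe brightness, or confirmed in later tests; inconclusive = above 50% with abnormal brightness, or retests that disagree; inactive = below 50% or failed in later tests; about a fifth of its hits are not listed in these tables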;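 note: calls also rest on retests at 20 µM and on dose response follow-up; 0% = protein and probe with vehicle and 100% = probe without protein; strong numbers were not always called active; many hits fall short of the cut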
# UUG fidelity: modulators of start codon recognition fidelity in yeast; S. cerevisiae UUG-firefly luciferase reporter, luminescence/redox ratio; activity score, % at 18.7 µM; actives 0.13% (n = 350,000); AID 602363;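 active = replicate mean at a twofold rise or more, about +100% in these data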;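 note: firefly luciferase made from a UUG start codon reports start codon fidelity; reporter light over untreated wells divided by growth signal over untreated wells; some hits fall short of that in this replicate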
# CSC inhib: blocks cancer stem cells; cancer stem cell-like cells viability, luminescence; inhibition, % at 7.5 µM; AID 2717; actives 1.1% (n = 300,000);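 active = mean at 75% or more and at least half the replicates too; inconclusive = mean and replicates disagree; tested in HMLE shEcad cells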;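 note: 0% = median of negative and 100% = median of positive control wells; the first replicate is given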
# PABP FP inh: blocks human PABP binding to poly(A) RNA; fluorescence polarization; inhibition, % at 35 µM; actives 1% (n = 290,000);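 active = 50% or more with normal probe brightness, or confirmed in later tests; inconclusive = above 50% with abnormal brightness, or retests that disagree; inactive = below 50% or failed in later tests; about a fifth of its hits are not listed in these tables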;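 note: calls also rest on retests at 20 µM and on dose response follow-up; controls were probe without protein and protein plus probe with vehicle; some compounds called inactive have numbers as strong as hits; many hits fall short of the cut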
# MT1-MMP act inh: blocks activation of human MT1-MMP; P50281; HT1080 RFP-PRO-GFP cells, GFP/RFP ratio fluorescence, overnight; percent of plate control window, DMSO zero; GFP/RFP ratio change, % at 20 µM; actives 0.061% (n = 360,000);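 active = GFP/RFP ratio change of at least 30% with cell ATP level not reduced by more than half and red fluorescence within 50% of control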; note: strong numbers were not always called active
#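 system = RFP-PRO-GFP reporter HT1080 cells | dosing = 20 µM single dose, 1% DMSO | timing = overnight cell settling, then overnight compound exposure, 37 °C, 5% CO2 | read-out basis = GFP/RFP fluorescence ratio | controls = DMSO and RFP-L50D-GFP cell wells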
# Env fusion inh: inhibitors of HIV Env-mediated cell fusion | actives 1.1% (n = 360,000) | AID 651610 | HeLa-JRFL Env/CEM21 cell fusion, luciferase | inhibition, % at 12.3 µM;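 active = mean replicate inhibition score of at least 50 and every replicate individually at or above 50; inconclusive = only one of the two criteria met; inactive = mean below 50 and not all replicates reaching 50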;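 note: 0% = plate neutral controls and 100% = maraviroc near 300 nM; one replicate is shown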
# Rce1 inh: blocks yeast Ras-converting enzyme. AID 2563. Q03530. actives 0.27% (n = 290,000). yeast membranes, quenched prenylated peptide cleavage fluorescence. calls only;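 active = fall in fluorescence gain of 50% or more versus controls, with final raw signal at or below 3038400; inconclusive = same 50% fall but final raw signal above 3038400; inactive = fall in fluorescence gain under 50%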;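 note: plate controls were neutral control wells for no effect and wells lacking membranes for full effect; tested at 10 µM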
# Target sequence (Q03530 whole entry, looked up): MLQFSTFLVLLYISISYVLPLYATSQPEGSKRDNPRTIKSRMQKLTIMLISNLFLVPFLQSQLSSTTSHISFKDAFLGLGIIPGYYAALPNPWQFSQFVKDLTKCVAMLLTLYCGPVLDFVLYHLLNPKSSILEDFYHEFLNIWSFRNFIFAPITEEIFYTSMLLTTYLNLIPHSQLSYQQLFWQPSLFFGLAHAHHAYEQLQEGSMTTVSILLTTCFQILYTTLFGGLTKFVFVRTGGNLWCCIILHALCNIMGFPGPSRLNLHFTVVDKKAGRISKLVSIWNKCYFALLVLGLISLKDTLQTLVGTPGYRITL
# eIF4H inh retest: further read-out of eIF4H inh, marked with its call; inhibition, %; compound at 20 µM; confirmation average;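 mean of two retest wells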
# PABP FP inh retest: also measured in PABP FP inh; calls as there; inhibition, %; compound at 20 µM; confirmation repeats;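 mean of two retest wells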
# MT1-MMP act inh RFP: further read-out of MT1-MMP act inh, marked with its call; RFP signal change, %; measured here: RFP expression control read;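 0 = vehicle wells; hits needed this value within 50% of zero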
# Starred values were filed as active, the others as inactive; i = inactive; ? = inconclusive; / = not tested or not shown.
SMILES,eIF4H inh,UUG fidelity,CSC inhib,PABP FP inh,MT1-MMP act inh,MT1-MMP act inh RFP,Env fusion inh,Rce1 inh,others
CCC(=O)Nc1ccc(C(=O)Nc2cccc(C)n2)cc1,8,/,/,9,1,-2,-71,i,
O=C(Cn1cnc2sc(-c3ccccc3)cc2c1=O)NCc1ccco1,58,-11,44,5,2,4,/,/,eIF4H inh retest=-12;PABP FP inh retest=15
CC[C@]12c3[nH]c4ccccc4c3CCN1C(=O)C(CC(=O)NCCc1ccccn1)C[C@@H]2C(=O)N1CCN(C(=O)C2CC2)CC1 (stereo partly specified),/,-1,9,/,0,2,/,/,
C/C(=N\NC(=O)c1cccc(S(=O)(=O)N2CCCCC2)c1)c1ccc(C)o1,2,/,-11,-7,0,4,1,i,
CCOc1cc(C)c(Cl)cc1S(=O)(=O)n1nnc2ccccc21,-4,-31,-8,-7,-10,3,9,i,
COc1ccccc1C(O)(C(=O)N(NC(C)=O)c1ccccc1)c1ccccc1OC,-3,-5,/,7,-1,1,9,i,
CC1=C(C(=O)N2CCOCC2)CC(CC(=O)NC2CC2)C(=O)N1CCC1=CCCCC1 (stereo unspecified),/,4,/,/,0,3,?,/,
CC(=O)Nc1ccc(NC(=O)C2(C)Cc3c(-c4ccc(NC(C)=O)cc4)ccnc3O2)cc1 (stereo unspecified),/,13,/,/,2,-3,3,/,
O=C(O)c1ccc(S(=O)(=O)c2ccc3c(c2)C(=O)N(c2ccc(Br)cc2)C3=O)cc1,12,-9,-6,23,-1,3,-9,i,
CC1CCN(C(=O)C2(NC(=O)Nc3cccc(F)c3)CCCCC2)CC1,9,/,-5,3,2,0,/,/,
O=C(CNC(=O)c1ccccc1F)NCCc1ccc(Cl)cc1,2,-11,-2,4,0,3,-5,i,
COc1ccccc1-c1cc(C(=O)NN)[nH]n1,3,-13,-1,-3,1,-2,5,i,
COc1cc(CCC(=O)Nc2nccs2)cc(OC)c1OC,-8,-3,-18,3,-1,2,14,i,
O=C(/C=C/Nc1ccccc1F)c1cccs1,-1,/,5,-8,-5,-1,-66,i,
O=C(O)CSc1nnc2c(n1)[nH]c1ccccc12,7,/,-11,7,0,0,8,/,
N#Cc1ccc(S(=O)(=O)N2CCN(Cc3cccs3)CC2)cc1,/,6,/,/,0,0,-3,/,
CON1C(=O)C(=O)N(OC)C2CCCCCC21 (stereo unspecified),-2,/,-13,-12,-2,2,4,i,
COCCNc1nc(C)cc(-c2cc(C(=O)Nc3ccccc3)on2)n1,/,-6,-12,/,-3,4,/,i,
COc1ccc(NC(=O)CNc2cccc(C#N)c2)cc1Cl,1,-4,-13,21,2,3,-32,i,
COc1ccccc1C(=O)Nc1nnc(S(=O)(=O)N2CCCCCC2)s1,0,1,-4,-15,6,-1,-11,i,
CC(=O)Nc1nc(-c2ccc3ccccc3c2)cs1,-6,-13,-1,-9,3,-7,-149,i,
C=CCNC(=S)N1CCN(Cc2ccc3c(c2)OCO3)CC1,8,12,7,25,0,-2,14,i,
COc1ccccc1NC(=O)c1ccc(NC(=O)Cc2n[nH]c(=O)c3ccccc23)cc1,4,-20,-3,-1,4,5,11,i,
COc1ccccc1NC1CCCCC1NS(=O)(=O)c1ccccc1 (stereo unspecified),-9,-11,18,-11,-4,-6,2,i,
CC(C)(C)NC(=O)c1sccc1C(=O)O,/,-5,2,/,0,3,1,i,

# Four records drawn at random from those above:
SMILES,eIF4H inh,UUG fidelity,CSC inhib,PABP FP inh,MT1-MMP act inh,MT1-MMP act inh RFP,Env fusion inh,Rce1 inh,others
CCOc1cc(C)c(Cl)cc1S(=O)(=O)n1nnc2ccccc21,-4,-31,-8,-7,-10,3,9,i,
CC(=O)Nc1nc(-c2ccc3ccccc3c2)cs1,-6,-13,-1,-9,3,-7,-149,i,
C=CCNC(=S)N1CCN(Cc2ccc3c(c2)OCO3)CC1,8,12,7,25,0,-2,14,i,
CON1C(=O)C(=O)N(OC)C2CCCCCC21 (stereo unspecified),-2,/,-13,-12,-2,2,4,i,

# Additional structures.
SMILES,eIF4H inh,UUG fidelity,CSC inhib,PABP FP inh,MT1-MMP act inh,MT1-MMP act inh RFP,Env fusion inh,Rce1 inh,others
CCOc1ccc(OCc2ccc(C(=O)NCc3cccnc3)o2)cc1,8,/,-5,0,-1,-5,/,i,
CCCn1cc(SCC(=O)Nc2cc(C)on2)c2ccccc21,-4,-10,-5,5,-6,-1,21,i,
COc1ccc(/C=N/NC(=O)c2cccc(C(=O)N/N=C/c3ccc(OC)cc3)n2)cc1,-4,-4,-4,14,-8,-1,-11,i,
Nc1cc(S(=O)(=O)Nc2ccccc2Cl)ccc1N1CCCCC1,/,-6,-15,/,-2,-24,/,/,
CCOc1ccccc1NC(=O)c1ccc(-n2cncn2)nc1,-4,/,-4,-6,-4,1,2,i,
COc1cccc(-c2ccc(NC(=O)C3CCCN(CCCn4cccn4)C3)cc2)c1 (stereo unspecified),-15,-21,-20,-5,3,-1,14,i,
O=C1C2CC=CCC2C(=O)N1c1ccc(NCCc2ccc(O)cc2)c([N+](=O)[O-])c1 (stereo unspecified),11,/,25,31,16,-19,4,i,
CN(C)c1ccc(-c2sc(Nc3ccccc3)n[n+]2-c2ccc(F)cc2)cc1,11,-6,2,9,-3,-1,-16,i,
CCOc1cc(/C=N/NC(=O)Nc2ccccc2)ccc1O,4,/,-5,1,14,3,-58,i,
CCC(=O)Nc1c(C(=O)N2CCCCCC2)cnn1-c1ccc(C)c(C)c1,-7,-10,2,-8,-1,-4,-17,i,
N#Cc1cc(-c2ccccc2)c[nH]c1=O,-6,/,-4,10,-3,-4,-434,i,
CCOC(=O)c1ccc2c(c1)nc(SCC(=O)N1CCOCC1)n2CC,-7,/,-8,4,2,0,7,i,
Cc1ccc(C(=O)N/C(=C\c2cccs2)C(=O)N2CCN(C)CC2)cc1C,-4,-5,-12,0,-3,7,-12,/,
Cc1oc(=O)c(NC(=O)c2ccccc2)cc1C(C)O (stereo unspecified),-3,/,/,3,-4,2,3,i,
Cc1ccc(S(=O)(=O)N2CCN(c3ccc4nnc(-c5ccccc5)n4n3)CC2)cc1,-6,-17,/,-3,4,1,-6,/,
CCCCCCCOC(=O)C[N+](C)(C)CCOC1CC2CCC1(C)C2(C)C (stereo unspecified),10,/,/,-2,-52,-38,75*,/,
CN(C)CC(C)(C)CNS(=O)(=O)c1cccc(Cl)c1Cl,-2,-13,-19,40,-4,2,-13,i,
CCOc1cc(C(=O)NCc2ccccc2)ccc1OCC(=O)N1CCOCC1,-8,3,/,7,2,4,-7,i,
COc1ccccc1NC(=O)Nc1ccc2[nH]c(=O)[nH]c2c1,-12,/,-9,3,7,-1,-12,i,
O=C(N=C1SC2CS(=O)(=O)CC2N1Cc1ccc(Cl)cc1)C1CC1 (stereo unspecified),-1,-10,-1,6,-2,-3,-2,i,
CC(C)(C)Cc1nnc(NC(=O)CSc2ccccc2)s1,-10,0,4,4,2,3,-44,i,
CCN(CC)S(=O)(=O)c1ccc(Cl)c(C(=O)NC)c1,-5,/,-10,4,2,1,/,i,
O=C(Nc1ccc(NC(=O)C2CCCCC2)nc1)c1ccccn1,10,-8,-3,-1,7,1,-16,/,
CC(C)N(C(=O)CSc1nc2ccccc2n1Cc1ccc(F)cc1)C(C)C,-12,-11,/,-8,-9,-8,-66,i,
O=C(Nc1ccc(S(=O)(=O)NCc2ccccc2)cc1)c1ccc(Br)o1,-6,-11,/,-9,1,-14,/,i,
# (listing goes on)
SMILES,eIF4H inh,UUG fidelity,CSC inhib,PABP FP inh,MT1-MMP act inh,MT1-MMP act inh RFP,Env fusion inh,Rce1 inh,others
CC(OC(=O)c1ccc([N+](=O)[O-])s1)C(=O)NC1CCCCC1C (stereo unspecified),/,-18,/,/,4,-7,-14,/,
Cc1ccccc1C(=O)c1cccn1CC(=O)NCCN1CCN(c2cccc(C)c2C)CC1,-10,-16,22,-3,0,3,-42,i,
Cc1c(Cl)c([N+](=O)[O-])nn1CC(=O)N1CCN(C23CC4CC(CC(C4)C2)C3)CC1,-7,-8,/,-9,-1,1,-21,i,
O=C(CCNC(=O)c1ccccc1Cl)NCCC1=CCCCC1,/,-11,-15,/,5,5,58*,i,
O=C(NCc1ccccc1Cl)c1cnn2cccnc12,-3,0,-5,7,0,4,/,i,
NC(=O)NC(c1ccccc1)c1ccccc1,-6,-4,7,-11,0,1,/,i,
COc1cccc(-c2cc(C(=O)Nc3ccncc3)c3ccccc3n2)c1,0,-14,-5,6,2,-5,5,i,
CN(c1ccc(OCC(=O)OCC(=O)Nc2ccc(OC(F)F)cc2)cc1)S(=O)(=O)c1cccs1,/,-6,-1,/,-2,1,0,/,
CCN(CC)S(=O)(=O)c1cccc(C(=O)Nc2cc(C)cc(C)c2)c1,-2,1,-8,-7,-1,3,-26,i,
COc1cccc(NC(=O)C2(C)CCN2Cc2ccc3ccccc3c2)c1 (stereo unspecified),/,-6,/,/,-4,-2,-18,/,
CCC1(CC)C(=O)C2=C3C1[C@H](C(=O)OC)C=C(C(=O)OC)C[C@H]3[C@H]1C(=O)N(CC(=O)OC)C(=O)[C@H]1[C@H]2C (stereo partly specified),/,-7,-9,/,-1,6,19,i,
COc1ccc(CNC(=O)CN2C(=O)NC3(CCCCCC3)C2=O)cc1OC,-5,/,-5,4,2,-2,7,i,
CCOc1nc(Nc2ccc(OC)cc2)nc(OCC)n1,-6,-2,0,5,11,-4,-81,i,
Cc1ccc(S(=O)(=O)c2c(C)cc(C)[nH]c2=O)cc1,4,-13,5,5,5,4,-8,i,
O=C(Nc1ccc2c(c1)OCCO2)c1cc2sccc2n1Cc1ccccc1,0,-24,3,1,-5,-8,/,/,
O=C(/C=C/c1ccc(Cl)cc1)Nc1ccc(Br)cn1,2,/,-7,14,5,3,-23,i,
COC(=O)CC(NC(=O)Nc1ccc(C)cc1)c1cccc([N+](=O)[O-])c1 (stereo unspecified),-7,/,-7,-4,1,2,4,i,
Cc1ccn2cc(C(=O)Nc3ccc4c(c3)OCCO4)nc2c1,-1,-54,30,1,4,-2,-164,i,
CCOc1ccc(Cc2noc3c2C(=O)CC(C)(C)C3)cc1OCC,5,/,-2,-13,-5,-2,-14,i,
Cc1cc(C)nc(N/N=C/C2=C(N3CCOCC3)C(=C/c3ccccc3)/CC2)n1,84,-37,1,-3,-18,-10,/,i,eIF4H inh retest=-3;PABP FP inh retest=1
CC(C)OP(=O)(OC(C)C)C(NC(=O)c1ccccc1)C(N)=O (stereo unspecified),-9,/,-5,-9,0,2,-12,i,
CCCn1c(CNc2ccccc2O)nc2ccccc21,19,-48,12,9,-4,4,/,i,
Cc1ccsc1C(=O)N1CCC(CO)(Cc2ccccc2)CC1,-6,-8,7,3,-1,-4,26,i,
O=C(Nc1c2c(nc3ccccc13)CCCC2)c1ccccc1Br,1,-14,6,18,0,2,18,i,
CCN1/C(=C2\C(=O)N(c3ccccc3)N=C2C)C=Cc2cc(C)ccc21,-3,/,1,-7,-1,0,0,/,
c1ccc(-c2ccnc3nc(N4CCN(c5ccccc5)CC4)nn23)cc1,32,-5,-4,18,6,2,-22,i,
CSc1ccc(S(=O)(=O)NCCSC(C)(C)C)cc1,-6,-11,-3,3,2,-5,15,i,
c1cncc(CNc2nc(-c3cccnc3)nc3ccccc23)c1,-10,-12,0,7,-3,-2,2,i,
CC(C(=O)NCC1CCCCC1)N(C)Cc1cccc(Cl)c1 (stereo unspecified),1,/,4,-2,-1,5,1,i,
O=C(NC1(C(F)(F)F)NC(=O)N(CCc2ccccc2)C1=O)C1CC1 (stereo unspecified),6,-2,-7,1,0,2,-4,i,

# High-throughput results (PubChem)

# This is a subset; rates above refer to the full screens.
